TRPML1 inh: blocks the human TRPML1 channel | activity change, negative = inhibition, % (concentration not given with the values) | Q9GZU1 | 390,000 compounds, 0.02% hits | AID 624415 | TRPML1-inducible cells, Ca2+ dye fluorescence, FDSS; hits give low values; inhibition of EC80 agonist-evoked calcium signal; in the data active means activity change below about -50%; inconclusive means about -30% to -50%; inactive means above about -30%;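 note: stimulus is agonist 54-4 at its EC80 concentration; % is set by controls: 0 for no effect and ±100 for the full control effect; the text of the record puts the active cut at -80%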
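TRPML1-DL cells, Tet-induced overnight (~16 h, 37 °C) at 1,500 cells/well, were loaded with Ca8 no-wash dye plus quencher for 45-90 min at room temperature. Compounds were pinned during FDSS kinetic reading; agonist 54-4 at EC80 (4 uM final) then added.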
gsp antag: antagonists of gsp mutant (McCune-Albright syndrome); gsp-mutant cells, cAMP HTRF, 30 min; control for the full effect not named in the record; Potency, µM (top dose mostly 76.9 µM), for inactives: top-dose activity change, negative = inhibition, usual class: inhibitors; 340,000 compounds, 0.4% hits; active = falling curve of any shape with a large fitted effect; inconclusive = falling curve, mostly with a smaller effect; inactive = flat or rising curve; cell line not stated here;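 note: intracellular cAMP measured with PDE inhibitor Ro 20-1724 present during compound exposure; potency is the fitted concentration of half-maximal effect; % is set by controls: 0 for no effect and ±100 for the full control effect; nearly all actives have a fitted effect of over 65% in size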
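HTRF cAMP measurement after 30 min RT detection following 30 min, 37C compound treatment alongside […] (added as 300 uM solution) in G418-selected cells seeded at 2000/well and grown 16–24 h.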
ClpP mod: qHTS Assay for Activators of ClpP. purified B. subtilis ClpP, FRET peptide cleavage, 20 min. AID 651965, 2013. 340,000 compounds, 1.9% hits. Potency, µM (top dose mostly 57.5 µM), for inactives: at the highest dose activity change, negative = active; active = well fitted falling curve with a large enough effect; inconclusive = small, poorly fitted or top-dose-only effect; inactive = no such curve, though single readings can be large or run the other way; note: potency is the fitted concentration of half-maximal effect; the source files actives as falling curves though it sought activators and does not explain the sign; nearly all actives have a fitted effect of over 65% in size; many hits overshoot -100%
Target sequence (P80244 whole entry, looked up): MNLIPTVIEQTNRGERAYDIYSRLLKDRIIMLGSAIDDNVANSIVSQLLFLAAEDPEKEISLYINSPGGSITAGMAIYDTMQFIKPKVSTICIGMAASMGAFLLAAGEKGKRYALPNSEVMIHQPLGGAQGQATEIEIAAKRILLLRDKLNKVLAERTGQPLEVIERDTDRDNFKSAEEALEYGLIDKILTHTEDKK
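FRET quenching reversal measured ClpP activation: 10 microg/mL B. subtilis ClpP at pH 8 with the FRET-FV decapeptide, read at 430 nm after 320 nm excitation. The 20-min minus 0-min signal was scaled between DMSO/no-enzyme wells and ADEP (5.8 microM final).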
TRPV1 potentiator: potentiators of human vanilloid receptor 1 (TRPV1); Q8NER1; TRPV1-expressing cells, Fluo-8 calcium influx, capsaicin EC20 potentiation; host cell line not named in the record; control for the full effect not named in the record; potentiation, % at 8.33 µM; 320,000 compounds, 0.02% hits; AID 540277; active means potentiation above 80%; inconclusive means 30% to 80%; inactive means below 30%; note: 0% is about no effect
Target sequence (Q8NER1 whole entry, looked up): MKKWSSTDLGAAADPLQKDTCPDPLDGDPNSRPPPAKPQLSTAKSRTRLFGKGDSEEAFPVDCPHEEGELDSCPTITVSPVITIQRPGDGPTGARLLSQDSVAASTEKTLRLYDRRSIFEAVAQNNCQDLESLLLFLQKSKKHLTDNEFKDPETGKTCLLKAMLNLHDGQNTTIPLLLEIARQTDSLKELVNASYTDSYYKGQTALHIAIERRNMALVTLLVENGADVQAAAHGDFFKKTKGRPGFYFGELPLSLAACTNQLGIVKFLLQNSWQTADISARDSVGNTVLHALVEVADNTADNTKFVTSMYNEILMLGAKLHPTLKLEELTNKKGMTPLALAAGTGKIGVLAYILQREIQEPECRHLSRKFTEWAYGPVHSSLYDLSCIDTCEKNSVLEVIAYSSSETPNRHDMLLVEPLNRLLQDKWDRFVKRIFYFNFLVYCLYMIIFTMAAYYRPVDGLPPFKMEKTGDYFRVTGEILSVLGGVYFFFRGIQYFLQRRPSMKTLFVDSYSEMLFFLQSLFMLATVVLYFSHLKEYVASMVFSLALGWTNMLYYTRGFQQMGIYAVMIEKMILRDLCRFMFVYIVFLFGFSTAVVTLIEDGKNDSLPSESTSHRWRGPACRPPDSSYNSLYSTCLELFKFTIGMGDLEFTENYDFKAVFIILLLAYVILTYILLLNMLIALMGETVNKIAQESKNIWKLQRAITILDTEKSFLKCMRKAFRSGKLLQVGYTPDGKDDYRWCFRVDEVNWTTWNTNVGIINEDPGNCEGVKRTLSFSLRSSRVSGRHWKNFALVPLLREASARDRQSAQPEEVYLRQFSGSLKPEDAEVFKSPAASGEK
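TRPV1-expressing cells were cultured overnight at 35.5C and loaded with Fluo-8 calcium dye for 40 to 90 min at room temperature. After a 10 s baseline, compound was added and calcium influx was read kinetically for 3 min (ex 480/em 520 nm).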
gsp ag: activates gsp, the McCune-Albright syndrome mutation. 340,000 compounds, 0.13% hits. Potency, µM (top dose mostly 76.9 µM), without a hit: at the top dose activation (cAMP increase), actives largely listed as activators. AID 624287. gsp mutant cells, cAMP HTRF, 30 min; control for the full effect not named in the record; active = well fitted activation curve with a large enough effect; inconclusive = small, poorly fitted or top-dose-only effect, or another doubt; inactive = no such curve, though single readings can be large or run the other way; cell line not stated here;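 note: phosphodiesterase inhibitor Ro 20-1724 added with compounds to block cAMP breakdown; potency is the fitted concentration of half-maximal effect; nearly all actives have a fitted effect of over 60% in size; about a fifth of the inactives were tested at one dose only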
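Cells stably selected in G418 were plated at 2000/well, grown 16-24 hr, then given compounds in DMSO with the PDE inhibitor […] (300 uM solution added) for 30 min at 37C; cAMP was read by HTRF.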
Sfp PPTase inh: Sfp phosphopantetheinyl transferase inhibition | Q9F4F7 | Biochemical Sfp PPTase activity, qHTS | Potency, µM, for inactives: max response, negative = inhibition, usual class: inhibitors | 310,000 compounds, 3.5% hits | AID 1490; active = well fitted inhibition curve with a large enough effect; inconclusive = small, poorly fitted or top-dose-only effect, or another doubt; inactive = no such curve, though single readings can be large or run the other way;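 note: the enzyme is Sfp with the accession as filed and its product quenches rhodamine fluorescence; potency is the fitted concentration of half-maximal effect; 0% = enzyme reaction without inhibitor and -100% = no enzyme wells; top concentration of the series not given in the record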
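After 15 min at room temperature with compound, 15 nM Sfp received 5 uM rhodamine-CoA plus 12.5 uM BHQ-2-ybbR (50 mM Hepes pH 7.6, 10 mM MgCl2). Rate came from the fluorescence difference over 30 min, ex 525/em 598 nm.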
Menin-MLL FL inh: menin-MLL binding inhibition, fluorescein peptide; AID 1766; FP activity change, % at 61.4 µM; Fluorescence polarization, fluorescein-MLL peptide displacement from menin; 290,000 tested, under 10 active; inconclusive = falling polarisation curve, or a change in total fluorescence; inactive = total fluorescence flat and polarisation flat or rising; no compound was filed as active; the % refers to the polarisation; negative = inhibition;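 note: % of control where 0% means no effect; inhibitors lower the polarisation; unlabelled MLL peptide was the positive control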
* = called active by the depositor; u = inconclusive; x = no result given; & = joins results of further samples; [ ] = remark or other dose. An excerpt; the hit share may differ from the screen's.

compound,TRPML1 inh,gsp antag,ClpP mod,TRPV1 potentiator,gsp ag,Sfp PPTase inh,Menin-MLL FL inh
C[C@]12CCC(OC(=O)CCC(=O)O)CC1=CCC1C2CC[C@]2(C)C(=O)CCC12 (stereo not given in full),8,-13%,x,4,2%,8%,-0.4
CCOC(=O)N1CCN(/[N+]([O-])=N/Oc2ccc([N+](=O)[O-])cc2[N+](=O)[O-])C(C)C1 (stereo not given),35,x,x,x,x,u,2.4
CCCCC(=O)C1C(=O)NC(=O)NC1=O,40,-6%,1.3%,19,-18%,-7%,0.5
CN1C(C(=O)NCc2cccc(C(F)(F)F)c2)CC2Cn3c(nc4cc5ccccc5cc43)C21 (stereo not given),-5,-11%,-8.4%,u,-34%[inhibitor],0%,-4.7
O=C1NC(=O)N(Cc2ccccc2)C(=O)/C1=C/c1cnc(-c2ccccc2)nc1,24,0%,x,8,-16%[15.4 µM],56µM*,u
CNC(C(=O)c1ccccc1)C(OC)c1ccc(C)cc1 (stereo not given),-3,10%,2.1%,10,-2%,-21%,3.3
Cn1c(=O)oc2cc(S(=O)(=O)N3CCC(C(=O)N4CC=C(c5ccccc5)CC4)CC3)ccc21,-3,u,-1.3%,-6,5%,5%,1.9
CCC(=NCC1CCCO1)c1c(O)n(-c2ccc(Cl)cc2)c(=O)[nH]c1=O (stereo not given),6,5%,-2.7%,16,6%,20%,1.2
CC(=O)O[C@@]12CO[C@@H]1C[C@H](OC1OCC(O)C(O)C1O)[C@@]1(C)C(=O)[C@H](O)C3=C(C)[C@@H](OC(=O)[C@H](O)[C@@H](NC(=O)c4ccccc4)c4ccccc4)C[C@@](O)([C@@H](OC(=O)c4ccccc4)C12)C3(C)C (stereo not given in full),x,14%,1.8%,-1,x,6%,-11
O=C(C1CCCN(c2nnc(-n3cccc3)s2)C1)N1CCC2(CC1)OCCO2 (stereo not given),16,2%,-0.2%,0,-47%[inhibitor],-4%,0.7
Cc1c(C(C)(C)C)s/c(=N/S(=O)(=O)c2ccccc2)n1C,-2,0%,-3.0%,-6,-34%[inhibitor],9%,1.8
COc1ccc2c(c1)[C@@]13CCC=C[C@H]1[C@@H](C2)NCC3,2,3%,-2.1%,-4,x,x,x

New compounds follow.
compound,TRPML1 inh,gsp antag,ClpP mod,TRPV1 potentiator,gsp ag,Sfp PPTase inh,Menin-MLL FL inh
COC(=O)C1=C(c2ccc(F)cc2F)C[C@@H]2CC[C@H]1N2C(=O)NC(C)C,22,6%,-0.2%,4,-19%,x,x
O=S(=O)(c1ccccc1)N1CN2CCN(C2)C1,4,11%,-1.7%,-8,-1%[15.4 µM],-5%,2.0
CCCCn1c(O)c(C(CC)=NCc2ccc(F)cc2)c(=O)[nH]c1=O,-4,-11%,-1.5%,6,-10%,3%,-0.7
Cc1ccc(Cn2nnnc2CN2CCC(n3nnc4cc(C(F)(F)F)ccc43)CC2)cc1,29,16%,-0.5%,-2,13%,16%,0.6
Fc1ccc2c(c1)nnn2C1CCN(Cc2nnnn2C2CCCCC2)CC1,-2,15%,-4.9%,-2,6%,-4%,0.4
CC(C)(C#N)Nc1ccccc1,11,5%,0.0%,u,-37%[inhibitor],11%,-3.7
Cc1c(NP(=S)(C(C)(C)C)C(C)(C)C)c(=O)n(-c2ccccc2)n1C,26,8%,x,7,-23%,-12%,0.2
CN1CCN(Cc2ccc(OC(F)(F)F)cc2)CC1,1,15%,0.9%,-8,-8%,6%,-0.1
CC1C2Cn3c(nc4ccccc43)C1N(C)O2 (stereo not given),-8,0%,0.7%,u,x,-24%,0.1
Cc1ccc(-n2c(-c3ccc([N+](=O)[O-])cc3)nc3ccccc3c2=O)cc1,-1,-13%,x,-8,-3%,3%,0.4
CCN1CCN(C(=O)COc2ccc(S(=O)(=O)N3CCOCC3)cc2C)CC1,-16,4%,x,-1,4%,7%,-0.4
OC(c1ccccc1)(c1ccccc1)C1CCCN1 (stereo not given),5,17%,0.1%,-24,26%,23%,-0.4

The list goes on:
compound,TRPML1 inh,gsp antag,ClpP mod,TRPV1 potentiator,gsp ag,Sfp PPTase inh,Menin-MLL FL inh
COc1ccc(Cn2c(O)c(/C=C3/C=CC=N3)c(=O)[nH]c2=O)cc1,-1,14%,2.1%,6,u,10%,1.2
COc1ccccc1N1CCN(Cc2ccccc2)CC1,16,6%,0.7%,-1,2%,u,3.0
COc1cccc(OCc2cc(C(=O)N3C[C@H]4C[C@@H](C3)c3cccc(=O)n3C4)no2)c1,-6,5%,x,1,11%,15%,3.5
O=C(Nc1ccc(N2CCOCC2)cc1)Nc1ccc2nsnc2c1,-3,14%,x,-8,u,-3%,-2.4
CC(C)c1ccc(-n2c(O)c(C=NC(CCS(C)=O)C(=O)O)c(=O)[nH]c2=S)cc1 (stereo not given),x,6%,-2.1%,-14,18%,1%,10
O=c1[nH]c(=S)n(-c2ccccc2)c(O)c1C=NCCN1CCNCC1,30,0%,-1.2%,15,1%,-1%,1.7
CCN(CC)C(=O)c1ccc(NC(=O)c2cccc(S(=O)(=O)N3CCN(Cc4ccccc4)CC3)c2)cc1,24,-15%,-5.7%,3,-57%[inhibitor],x,x
COc1ccc(OCCOc2cccc(C=C3C(=O)NC(=O)NC3=O)c2)cc1,x,x,x,9,x,-86%,-1.0
CCOC(=O)c1cn2nc(OP(=S)(OCC)OCC)cc2nc1C,23,-10%,-12%,-14,-18%,-14%,-0.4
O=C(CN1CCCCC1)Nc1ccc(Br)cc1C(=O)c1ccccc1Cl,7,-9%,0.7%,2,20%,-8%,4.7
CC(=O)c1cccc(NC2=NCC(C)S2)c1 (stereo not given),3,10%,-3.0%,9,-15%,6%,1.4
CC(=O)Nc1ccc(C(=O)C(Cc2ccccc2)N(C)C)cc1 (stereo not given),-3,1%,x,-24,u,0%,4.4

(list continues)
compound,TRPML1 inh,gsp antag,ClpP mod,TRPV1 potentiator,gsp ag,Sfp PPTase inh,Menin-MLL FL inh
CCN(CC)CCCN=C(C)c1c(O)n(-c2ccccc2)c(=O)[nH]c1=O,7,12%,0.9%,-5,1%,17%,0.3
N#Cc1ccc(N2CCNCC2)c(F)c1,-9,12%,-3.2%,4,16%,4%,2.9
Cc1ccsc1/C=C1\C(=O)NC(=S)N(C)C1=O,x,3%,0.9%,-3,-22%,20µM*,-1.4
O=c1[nH]c(=O)n(Cc2ccco2)c(O)c1C=NC1CC1,-4,10%,-2.0%,4,7%,-15%,3.7
CC(C)CN1CCN(Cc2c(F)cccc2Cl)CC1CCO (stereo not given),11,9%,x,3,-6%[15.4 µM],-3%,-0.7
O=c1cccc2n1CC1CC2CN(C(c2cccc(F)c2)c2sc3ncnn3c2O)C1 (stereo not given),-4,8%,0.4%,12,u,5%,-1.7
CCC(=O)c1ccc(OCC(=O)N2CCN(CC(=O)Nc3ccccc3C(F)(F)F)CC2)cc1,2,-22%,x,x,26%,x,x
O=CC(Br)P(=O)(N1CCOCC1)N1CCOCC1 (stereo not given),20,-3%,-3.1%,8,26%,25µM*,1.6
CCC(=NC(C)c1ccccc1)c1c(O)[nH]c(=O)[nH]c1=O (stereo not given),-2,11%,0.9%,11,-7%[15.4 µM],0%,-1.4
N=C1/C(=C/c2ccc(OC(=O)c3ccco3)cc2)C(=O)N=C2SC=CN12,4,-10%,x,-7,-3%[15.4 µM],15%,u
Cc1ccc(S(=O)(=O)N(c2cc(Cl)c(O)c(Cl)c2)P(=O)(OC(C)C)OC(C)C)cc1,-7,-18%,0.6%,4,-18%,14%,-4.5
CN1C(=O)C(Cc2ccc3c(c2)OCO3)C(=O)N(C)C1=O,x,x,x,-6,x,u,4.6

The list goes on.
compound,TRPML1 inh,gsp antag,ClpP mod,TRPV1 potentiator,gsp ag,Sfp PPTase inh,Menin-MLL FL inh
CCC(=Nc1ccc(OC)cc1OC)c1c(O)n(C2CCCCC2)c(=O)[nH]c1=O,4,u,-1.7%,-22,u,-7%,10
COc1cc(C(=O)Nc2ccc(Br)cc2C(=O)c2ccccc2)cc(OC)c1OC,-9,4%,1.4%,-1,-91%[inhibitor],17%,3.9
COc1ccc(CN2C(=O)CC(=O)NC2=S)cc1,8,4%,-1.4%,-5,-51%[inhibitor],u,u
COc1ccccc1Oc1c(C)oc2cc(OC(=O)N(C)C)ccc2c1=O,26,15%,-2.0%,12,29%,14%,-6.9
CCOC(=O)C1CCCN(Cc2ccc(-c3ccccc3)cc2)C1 (stereo not given),x,-1%,0.7%,-6,11%,u,-9.4
O=C1CCN(Cc2ccc(Cl)cc2)N1,48,10%,-2.4%,-5,-1%,6%,2.2
CCOC(=O)C1CCN(/C=C2\C(=O)NC(=S)N(CC)C2=O)CC1,-2,13%,1.7%,3,2%,79µM*,u
Cn1cnc(CCN)c1,19,3%,-3.1%,x,x,x,3.3
COc1cc2c(cc1OC)C13CCN4CC5CCOC6CC(=O)N2C1C6C5CC43 (stereo not given),-3,9%,x,x,-28%,x,x
Cc1cc(OCC(=O)N2C[C@H]3C[C@@H](C2)c2cccc(=O)n2C3)c2c(C)c(C)c(=O)oc2c1,x,-16%,4.8%,4,x,22%,-2.6
c1cncc(C2CCCCN2Cc2ccc3c(c2)OCO3)c1 (stereo not given),2,6%,-2.8%,x,-24%,-1%,-4.6
Cc1nc2ccccc2c(=O)n1-c1cccc([N+](=O)[O-])c1,x,10%,1.7%,7,-73%[inhibitor],16%,-0.3

More structures.
compound,TRPML1 inh,gsp antag,ClpP mod,TRPV1 potentiator,gsp ag,Sfp PPTase inh,Menin-MLL FL inh
c1cncc(C2CCCCN2)c1 (stereo not given),13,-4%,-3.5%,-4,0%,33%&11%&7%,-8.0&0.7
CSc1nnc([C@@H](N)Cc2ccccc2)o1,-13,5%,-1.8%,8,-1%,2%,4.4
O=C(CCCOc1ccc(Cl)cc1Cl)N1CCC2(CC1)OCCO2,3,6%,-0.1%,6,9%,4%,6.5
CCc1ccc(/C=C(/C#N)C(N)=S)cc1,6,6%,0.8%,5,-5%,u,5.4
CC(=O)O[C@H](CC(=O)O)C[N+](C)(C)C,1,-1%,1.2%,2,x,-15%,x
CCOP(=O)(OCC)C1(O)C(=O)Nc2ccccc21 (stereo not given),-10,12%,-2.6%,1,2%,11%,2.7
